Compound activity (PubChem)
TRPV1 PAM: HTS Assay for Compounds that Act as Potentiators of the Vanilloid Receptor 1. Transient receptor potential cation channel subfamily V member 1 (Homo sapiens), Q8NER1. TRPV1-expressing cells, Fluo-8 calcium influx, capsaicin EC20 potentiation; host cell line not named in the record; control for the full effect not named in the record. potentiation, % at 8.33 µM. hit rate 0.02% among 320,000. AID 540277, 2011; active means potentiation above 80%; inconclusive means 30% to 80%; inactive means below 30%; also: 0% is about no effect
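TRPV1-expressing cells were cultured overnight at 35.5C and loaded with Fluo-8 calcium dye for 40 to 90 min at room temperature. After a 10 s baseline, compound was added and calcium influx was read kinetically for 3 min (ex 480/em 520 nm).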
TRPML1 inh: qHTS for Inhibitors of the Human Mucolipin Transient Receptor Potential 1 (TRPML1); Mucolipin-1 (Homo sapiens), Q9GZU1; TRPML1-inducible cells, Ca2+ dye fluorescence, FDSS; hits give low values; inhibition of EC80 agonist-evoked calcium signal; activity change, negative = inhibition, % (no concentration beside the values); hit rate 0.02% among 390,000; AID 624415, 2012; in the data active means activity change below about -50%; inconclusive means about -30% to -50%; inactive means above about -30%;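 also: stimulus is agonist 54-4 at its EC80 concentration; % is scaled to controls: 0 for no effect and ±100 for the full control effect; compound concentration not given in the record; the text of the record puts the active cut at -80%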
Target sequence (Q9GZU1 whole entry, looked up): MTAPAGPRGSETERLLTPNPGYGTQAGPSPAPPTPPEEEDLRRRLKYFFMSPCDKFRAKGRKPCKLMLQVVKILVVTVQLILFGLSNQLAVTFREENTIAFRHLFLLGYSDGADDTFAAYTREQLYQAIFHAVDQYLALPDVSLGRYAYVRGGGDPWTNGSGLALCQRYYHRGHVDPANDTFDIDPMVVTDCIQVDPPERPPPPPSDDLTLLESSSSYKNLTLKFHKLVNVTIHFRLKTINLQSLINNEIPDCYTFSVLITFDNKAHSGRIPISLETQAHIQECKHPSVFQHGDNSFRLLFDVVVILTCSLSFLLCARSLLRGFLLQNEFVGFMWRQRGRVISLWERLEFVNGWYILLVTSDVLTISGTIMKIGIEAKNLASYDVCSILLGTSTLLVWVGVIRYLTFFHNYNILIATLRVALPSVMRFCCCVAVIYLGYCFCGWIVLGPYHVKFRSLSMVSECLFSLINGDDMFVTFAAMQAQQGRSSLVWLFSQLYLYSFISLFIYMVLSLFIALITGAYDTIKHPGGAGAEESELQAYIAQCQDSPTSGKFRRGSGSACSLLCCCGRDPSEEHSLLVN
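Calcium fluorescence in TRPML1-DL cells induced overnight with Tet: a 110 s read after compound pin addition, then a 110 s antagonist read after challenge with 54-4 at 4 uM final (EC80).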
CtBP-E1A blk: qHTS Assay for Inhibitors of the CtBP/E1A Interaction; AlphaScreen GST-E1A/His-CtBP binding, 1536-well; hits give low values; control for the full effect not named in the record; AID 651724, 2012; hit rate 0.49% among 340,000; activity change, % (no concentration beside the values); in the data active means activity change below about -65%; inconclusive means about -30% to -65%; inactive means above about -30%; also: % is scaled to controls: 0 for no effect and ±100 for the full control effect; compound concentration not given in the record
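In 5 uL wells, 23 nL compound meets equimolar GST-E1A and His-CtBP (5X stock 125 nM each) for 2 h, 37 °C. Beads (5X, 50 ug/mL) then 1 h, 37 °C, dark.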
Six1-Eya2 blk: qHTS Assay for Inhibitors of the Six1/Eya2 Interaction; Homeobox protein SIX1 (Homo sapiens) + Protein phosphatase EYA2 (Homo sapiens), …; AlphaScreen GST-Six1/His-Eya2 binding, biochemical; hits give low values; control for the full effect not named in the record; activity change, % (concentration not given with the values); hit rate 0.56% among 360,000; AID 651725, 2012; in the data active = activity change below about -65%; inconclusive = about -30% to -65%; inactive = above about -30%; also: % is scaled to controls: 0 for no effect and ±100 for the full control effect
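AlphaScreen luminescence read after one hour at 37 °C in darkness. Pin-transferred compounds met GST-Six1 and His-Eya2 protein (5X stock 250 nM/500 nM) plus glutathione donor and Ni-chelate acceptor beads (5X, 50 ug/mL).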
D2 potentiator: Beta-Arrestin HTS for Positive Allosteric Modulators of the Human D2 Dopamine Receptor: Potentiators. D(2) dopamine receptor (Homo sapiens), P14416. hit rate 0.23% among 360,000. DiscoveRx D2 beta-arrestin cells, luminescence, 90 min; 100% = 57 uM dopamine signal. potentiation, % (test concentration not listed); active = potentiation of 50% or more; inconclusive = 30% to 50%; inactive = 30% or less;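 also: compound concentration not given in the record; tested on top of an EC20 dose of dopamine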
Target sequence (P14416 whole entry, looked up): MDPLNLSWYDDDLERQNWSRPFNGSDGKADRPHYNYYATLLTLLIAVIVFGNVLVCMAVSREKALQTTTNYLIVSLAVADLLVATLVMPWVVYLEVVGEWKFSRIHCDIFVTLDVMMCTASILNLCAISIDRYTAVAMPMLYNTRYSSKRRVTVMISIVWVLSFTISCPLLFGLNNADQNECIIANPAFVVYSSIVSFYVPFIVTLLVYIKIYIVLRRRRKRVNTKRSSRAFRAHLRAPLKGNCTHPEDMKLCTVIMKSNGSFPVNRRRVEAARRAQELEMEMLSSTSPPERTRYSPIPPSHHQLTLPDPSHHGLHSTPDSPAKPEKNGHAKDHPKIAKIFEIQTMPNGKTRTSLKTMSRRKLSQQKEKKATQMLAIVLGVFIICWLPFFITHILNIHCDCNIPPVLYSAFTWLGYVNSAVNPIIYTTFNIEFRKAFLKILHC
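PathHunter D2 cells, attached overnight at 37 deg C, received compound in DMSO plus dopamine at EC20 (50 nM final) for 90 min at 37 deg C. Beta-arrestin recruitment was read as luminescence after 1 h with detection reagent at ambient temperature.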
TRPML1 ag: qHTS for Agonists of the Human Mucolipin Transient Receptor Potential 1 (TRPML1); hit rate 0.12% among 410,000; activation, % (concentration not given with the values); TRPML1-expressing cells, Ca2+ dye fluorescence, FDSS; host cell line not named in the record; reference of the full effect not given here; in the data active = activation above about 50%; inconclusive = about 30% to 50%; inactive = below about 30%; also: 0% is about no effect; the text of the record puts the active cut at 80%
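Tetracycline-induced TRPML1-DL cells are seeded and incubated overnight before loading with a no-wash Ca2+ dye and quencher. Agonist activity is taken from the 110 s fluorescence read following compound pin-transfer on an FDSS, before EC80 54-4 challenge.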
Numbers without * were called inactive; ? = inconclusive; / = not tested or not shown.

SMILES	TRPV1 PAM	TRPML1 inh	CtBP-E1A blk	Six1-Eya2 blk	D2 potentiator	TRPML1 ag
O=[N+]([O-])c1cc(S(=O)(=O)Nc2ccccc2)ccc1NCc1ccccc1	?	-11	11	-3	-14	2.4
O=C(CNC(=O)c1ccccc1F)OCc1csc(-c2ccccc2)n1	-1	-2	9	-5	-7	0.9
CC(=O)N1C(=O)N(C(C)=O)C2C1N(C)C(=O)N2C(C)=O (configuration not stated)	3	-6	7	3	5	0.1
O=C(CS(=O)(=O)c1ccccc1Cl)N1CCOCC1	15	27	4	0	-4	7.4
O=C(CSc1ccc(Br)cc1)NCC(c1cccs1)N1CCOCC1 (configuration not stated)	-11	-2	-2	0	?	-0.6
O=C(NCCc1ccc(Cl)cc1)C1CCN(S(=O)(=O)c2cccs2)CC1	6	-8	2	-1	-5	-0.3
CC(=O)N1CN(CCCn2ccnc2)Cc2c1sc1c2CCCC1	9	7	-11	-6	10	-0.9
Cc1ccc2onc(CC(=O)O)c2c1	-13	-13	7	7	1	-0.1
CCOC(=O)COc1cc(-n2c(=S)[nH]c3cc(OC)c(OC)cc3c2=O)c(Cl)cc1Cl	-4	0	1	5	-1	-0.5
Cc1ccc(S(=O)(=O)N2CCN(c3ccc(S(=O)(=O)N4CCOCC4)cn3)CC2)cc1	?	-6	-1	15	-19	0.5
CCOc1ccc(-c2c(C(=O)N/N=C(\C)c3ccco3)nnn2-c2nonc2N)cc1	0	20	-3	-1	-5	0.2
Cc1ccc(-n2nc(C)c(C3(O)C(=O)N(C(C)C)c4ccccc43)c2N)cc1 (configuration not stated)	-3	17	-2	0	-11	1.5
COC(=O)N(C)c1ccccc1C(=O)N1CCOCC1	-17	-18	0	17	-5	-0.4
COc1ccccc1C(=O)N/C(=C/c1ccco1)C(=O)Nc1cccc(C(=O)O)c1	21	17	-7	-24	-6	1.2
CS(=O)(=O)N1CCN(Cc2ccc([N+](=O)[O-])cc2)CC1	5	12	8	0	-6	0.0

An excerpt from further up, for reference:
SMILES	TRPV1 PAM	TRPML1 inh	CtBP-E1A blk	Six1-Eya2 blk	D2 potentiator	TRPML1 ag
O=[N+]([O-])c1cc(S(=O)(=O)Nc2ccccc2)ccc1NCc1ccccc1	?	-11	11	-3	-14	2.4
O=C(CNC(=O)c1ccccc1F)OCc1csc(-c2ccccc2)n1	-1	-2	9	-5	-7	0.9
CC(=O)N1C(=O)N(C(C)=O)C2C1N(C)C(=O)N2C(C)=O (configuration not stated)	3	-6	7	3	5	0.1
O=C(CS(=O)(=O)c1ccccc1Cl)N1CCOCC1	15	27	4	0	-4	7.4
O=C(CSc1ccc(Br)cc1)NCC(c1cccs1)N1CCOCC1 (configuration not stated)	-11	-2	-2	0	?	-0.6
O=C(NCCc1ccc(Cl)cc1)C1CCN(S(=O)(=O)c2cccs2)CC1	6	-8	2	-1	-5	-0.3
CC(=O)N1CN(CCCn2ccnc2)Cc2c1sc1c2CCCC1	9	7	-11	-6	10	-0.9

(more compounds)
SMILES	TRPV1 PAM	TRPML1 inh	CtBP-E1A blk	Six1-Eya2 blk	D2 potentiator	TRPML1 ag
O=C(c1[nH]c(C(F)(F)F)nc1-c1ccccc1)N1CCN(c2ncc(C(F)(F)F)cc2Cl)CC1	/	-3	6	3	-11	14
Nc1nonc1-n1nnc(C(=O)N/N=C/c2cccc(Cl)c2Cl)c1CN1CCCC1	-4	17	6	13	-1	0.2
Cc1csc(NC(=O)CSc2nnc(-c3cc(C)on3)o2)n1	-13	42	/	-19	-3	1.0
CC(=O)N1CCC(=O)N(C(C)C)c2ccccc21	13	-10	0	13	0	-0.8
CC(C)NC(=O)c1cc2c(s1)CCCC2	7	7	5	5	-3	3.6
Cc1ccc(S(=O)(=O)NCCSc2ncccn2)cc1	-13	-23	2	3	-4	-0.2
COc1ccc(OC)c2c1CC(C)(C)NC2=O	1	1	4	6	-1	0.3
O=C(COC(=O)c1ccc([N+](=O)[O-])o1)c1ccccc1	9	-9	-3	0	65*	0.5
OCCCN1c2ccccc2Nc2nnc(-c3ccccc3)cc21	4	12	-10	-4	-17	0.9
CCCc1nc2ccc(C)cn2c1Cc1cccc(Cl)c1	/	/	-5	-13	-8	-0.5
COc1ccc(C(CNC(=O)c2ccc(NS(=O)(=O)c3ccccc3)cc2)N2CCOCC2)cc1 (configuration not stated)	0	-16	1	-4	-6	-0.2
Clc1ccc(CNc2ncnc3[nH]ncc23)cc1Cl	/	-8	1	-4	3	1.5
Fc1ccc(CSc2ccc3nnc(-c4cccnc4)n3n2)cc1	0	-10	-14	-29	6	0.5
O=C(COc1ccc(Cl)cc1)NN=C1CCCCCCC1	-2	-10	6	-2	-6	0.0
OCCCNCc1ccc(-c2ccccc2)cc1	7	0	11	3	-6	-0.6
CN(C(=O)C12CC3CC(CC(C3)C1)C2)C1(C)CCS(=O)(=O)C1 (configuration not stated)	-7	-5	4	9	3	1.0
COCCn1nnnc1C(c1ccc(OC)cc1OC)N1CCN(c2ccccc2)CC1 (configuration not stated)	23	-17	10	?	-22	0.4
COc1ccccc1NC(=O)c1c(C)nn(-c2ccccc2)c1Cl	-9	11	/	-2	-1	1.7
O=C(NCC1CCCO1)c1cc(C(=O)C2CCCCC2)c[nH]1 (configuration not stated)	4	4	2	5	-5	0.1
NC(=O)c1ccc(NC(=O)CN2C(=O)NC3(CCCCCCC3)C2=O)cc1	/	-3	7	4	-4	-0.4
CNCCC=C1c2ccccc2CCc2ccccc21	13	7	-1	3	-35	0.7
O=C(CSc1nc2ncccc2[nH]1)Nc1ccc2c(c1)OCCO2	15	8	-1	-10	-9	-0.3
CC1CCN(c2ccc3c(c2)S(=O)(=O)c2cccc(C(=O)NCc4ccc(F)cc4)c2C3=O)CC1	-10	-13	-8	11	1	?
Cc1csc(NC(=O)CCc2c(C)nc3cc(-c4ccc(Cl)cc4)nn3c2C)n1	24	-4	2	0	-8	-0.4
O=C(NNC(=O)c1ccccc1-n1cccc1)c1ccccc1	/	13	0	-5	-5	-0.2
COc1cc(OC)cc(C(=O)N(Cc2cc3cc(C)ccc3[nH]c2=O)C(C)C)c1	21	9	2	12	9	1.4
CSc1ccc(NC(=O)c2cccnc2)cc1C#N	-11	13	0	8	-5	1.2
CC(=O)c1c[nH]c(C(=O)NCC2CCCO2)c1 (configuration not stated)	/	-5	6	4	1	-0.7
CN(C)C(=O)N1CCN(C(=O)N(C)C)CC1	-4	-28	-1	7	-6	1.6
O=C(NC1CCCCC1)c1ccccc1NC(=O)C1CC(=O)N(c2ccccc2)C1 (configuration not stated)	-6	25	9	-1	-15	-0.2
O=C(CSc1ccc(-c2ccccc2)nn1)NCC1CCCO1 (configuration not stated)	-16	3	-21	20	-8	-0.4
C=CCN1C(=O)C(Cc2cccc(Cl)c2)S/C1=N/N=C/c1ccco1 (configuration not stated)	-13	6	0	-1	-19	1.7
CC(C)CNC(=O)C1CCN(Cc2ccc(OCc3ccccc3)cc2)CC1	?	13	-3	-5	10	0.4
O=C(c1cc2ccccc2o1)N(Cc1ccco1)Cc1cccs1	-9	-9	2	-1	-13	2.2
CC(C)[C@H](NC(=O)[C@H](Cc1ccccc1)n1c(=O)[nH]c2ccccc2c1=O)C(=O)N1CCC[C@@H]1C(=O)O	-2	/	3	3	-23	/
COc1cc2c(cc1OC)C(C)N(C(=O)Cn1ncc3c1-c1ccccc1OC3)CC2 (configuration not stated)	18	-10	-8	-4	-4	0.8
C=CCNC(=O)N1CCC(CO)(Cc2ccc(Cl)cc2)CC1	6	-6	/	0	-9	0.2
Cn1cc(S(=O)(=O)NCc2cccs2)c(=O)n(C)c1=O	/	2	9	0	-1	0.1
CC1(C)CC(=O)C=C(NCCc2ccc(S(N)(=O)=O)cc2)C1	-8	-4	4	0	-1	0.7
Nc1cc(=O)[nH]c(SCc2ccccc2)n1	/	-9	-2	6	-8	0.4
CCN(c1cccc(C)c1)S(=O)(=O)c1ccc2c(c1)NC(=O)CS2	11	-2	1	-1	-8	-0.7
O=C(Cn1c(=O)n(-c2ccc(F)cc2)c(=O)c2sccc21)N1CCCC1	-3	-23	3	-2	-11	0.5
Cc1ccc(NC(=O)CCS(=O)(=O)c2cccc3nonc23)c(Br)c1	5	-14	0	-8	-6	0.0
CC1CCCCC12NC(=O)N(CC(=O)N1CCN(c3ccccc3)CC1)C2=O (configuration not stated)	/	-11	-14	4	-1	-0.4
CN(C)c1ccc2nc3ccc(=O)cc-3sc2c1	/	17	0	?	-10	1.7
CCCN(CC(=O)Nc1ccccc1C)C(=O)c1ccc(N2CCCC2=O)cc1	4	3	/	7	15	-2.1
O=C(Nc1ccccc1N1CCN(C(=O)c2ccc(Cl)cc2)CC1)c1cccc([N+](=O)[O-])c1	15	71	-15	-16	0	0.3
O=C(NCC1CCCO1)c1cncc(Br)c1 (configuration not stated)	15	-9	2	0	-9	3.2
CC(C)Oc1ccc(F)cc1-c1cc(C(=O)N2CCc3ccccc3C2)[nH]n1	/	/	2	-7	-7	-0.5
COc1ccc2nc(NC(=O)c3c(C)noc3C)sc2c1	1	3	-9	4	-4	0.0
O=C(NCC(=O)N1CCCC1)c1cccs1	7	0	10	3	0	0.6
COc1ccc(C(CNC(=O)C(C)(C)Oc2ccc(Cl)cc2)N2CCOCC2)cc1 (configuration not stated)	/	13	-1	-2	-36	1.5
CN(CC(=O)Nc1ccc(F)cc1)C(=O)c1ccccc1Sc1ccccc1C#N	-9	-3	2	1	-25	1.4
Cc1sc2nc(SCc3nc(-c4ccccc4)no3)n(-c3ccccc3)c(=O)c2c1C	-30	-6	-2	0	5	-0.1
S=C(NCC(c1ccco1)N1CCCC1)Nc1ccccc1 (configuration not stated)	-1	-29	-16	2	-7	0.6
Cc1ccc(N2CCN(C(=O)c3ccccc3F)CC2)c(C)c1	-14	5	-1	-1	-6	0.5
CSc1nc(O)c(C(c2ccccc2)c2c(O)nc(SC)[nH]c2=O)c(=O)[nH]1	29	-22	0	-4	4	-0.1
Cc1ccccc1N(CC(=O)O)S(C)(=O)=O	?	11	2	7	25	-0.7
Cc1c([N+](=O)[O-])c(C/C=N/O)nn1C	-6	-3	-2	0	-14	0.4
CC(=O)Nc1ccc(NC(=O)C(C)OC(=O)CCCOc2ccc(Cl)c(C)c2)cc1 (configuration not stated)	9	-7	7	-4	13	0.0
Cc1cc(C)nc(-n2nc(C)c3c(C(F)(F)F)cc(=O)[nH]c32)n1	-4	17	2	5	1	0.2
C/C(=N\NC(=O)c1ccc(COc2ccccc2)cc1)c1ccncc1	-17	-5	6	5	-2	0.1
